AF4-AF9 inh: inhibitors of AF4 peptide binding to AF9, primary screen, biochemical, AlphaScreen, biotin-AF4 peptide, FLAG-AF9, single point | 350,000 tested, 0.47% active | AID 651704, 2012 | inhibition, % at 10 µM | Protein AF-9 (Homo sapiens), P42568;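 active = every replicate reaching a set inhibition limit, whatever the replicate mean, cut at about 25% in these data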;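 note: 0% = plate neutral control median and 100% = total signal loss; the record names both 10 and 1 µM as test concentration; the first replicate is given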
Target sequence (P42568 whole entry, looked up): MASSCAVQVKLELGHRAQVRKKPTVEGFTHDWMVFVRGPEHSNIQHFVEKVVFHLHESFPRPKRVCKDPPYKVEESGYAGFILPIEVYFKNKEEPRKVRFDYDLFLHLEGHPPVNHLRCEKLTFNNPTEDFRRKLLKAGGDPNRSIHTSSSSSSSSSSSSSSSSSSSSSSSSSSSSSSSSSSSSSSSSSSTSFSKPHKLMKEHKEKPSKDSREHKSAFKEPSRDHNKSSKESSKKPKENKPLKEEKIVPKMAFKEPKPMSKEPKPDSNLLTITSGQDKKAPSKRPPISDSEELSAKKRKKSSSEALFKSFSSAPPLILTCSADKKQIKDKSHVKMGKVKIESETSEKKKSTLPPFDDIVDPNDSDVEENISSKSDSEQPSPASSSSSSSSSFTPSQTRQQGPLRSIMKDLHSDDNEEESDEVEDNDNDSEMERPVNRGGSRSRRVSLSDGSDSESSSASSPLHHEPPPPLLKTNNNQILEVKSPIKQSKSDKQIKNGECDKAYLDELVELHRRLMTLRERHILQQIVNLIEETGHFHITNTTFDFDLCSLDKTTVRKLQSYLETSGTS
Ecoli rRNA inh: reduced GFP signal of wild-type E. coli, primary screen, bacterial rRNA inhibitor project, GFP/RFP fluorescence, OD600, single point; GFP signal change (wild-type ribosome), % (concentration not given with the values); E. coli WT GFP vs humanized-ribosome RFP mutants, 24 h; stronger effect = lower value; DMSO median 0, no signal -100; 350,000 tested, 1.6% active;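 active = significant combined selectivity score with lowered wild-type GFP, culture density cut under 30%, mutant RFP and density less affected; inactive = any of these conditions unmet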; note: one replicate is shown; some compounds called inactive have numbers as strong as hits
Ecoli rRNA inh OD600: also measured in Ecoli rRNA inh; calls as there; OD600 change, %; measured here: OD600 growth;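 optical density of the mix in the first replicate; 0 = DMSO median and -100 = no signal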
Ecoli rRNA inh RFP: recorded beside Ecoli rRNA inh, whose call it bears; RFP signal change, %; measured here: RFP humanized mutant strains;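 first replicate; 0 = DMSO median and -100 = no signal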
Active calls of the source: *; & = joins results of further samples. Some of the compounds tested. The share of hits here may be higher or lower than overall.

SMILES	AF4-AF9 inh	Ecoli rRNA inh	Ecoli rRNA inh OD600	Ecoli rRNA inh RFP
Cc1noc(C)c1NC(=O)Nc1cccc2c1O[C@H](CN(C)C)[C@H](C)CN([C@H](C)CO)C2=O	-2.4	5	5	1.5
COc1ccc(NC(=O)Nc2ccc3c(c2)C(=O)N([C@H](C)CO)C[C@H](C)[C@@H](CN(C)Cc2ccc(Cl)c(Cl)c2)OCCCC[C@H](C)O3)cc1	0.8	-2	0	1.9
COc1ccc(OC)c(NC(=O)Nc2nc(C(N)C(C)C)cs2)c1 (configuration not stated)	20	2	10	-0.7
CC1(C(=O)NS(=O)(=O)c2ccccc2OC(F)(F)F)CCN1C(=O)c1ccccc1 (configuration not stated)	0.1	14	9	-2.3
COC(=O)CCN1CCC2CC1c1cc(-c3cccc(C)c3)ccc12 (configuration not stated)	2.6	3	8	0.3
CCC(=O)N[C@@H]1CC[C@H](CC(=O)NCCN2CCCCC2)O[C@@H]1CO	-5.5	9	8	1.4
CO[C@H]1CN(C)C(=O)c2cc(NC(=O)c3cc(C)on3)ccc2OC[C@@H](C)N(CC2CC2)C[C@H]1C	-2.3	1	0	-2.1
O=C(c1ccc(F)cc1)N1C[C@@H]2N[C@H](C1)C2c1ccc(-c2ccc(F)cc2)cc1 (some centres not stated)	-5.2&-3.9	-59&-10	-77&-5	-13&0.7
C[C@@H]1CCCCO[C@@H](CN(C)S(=O)(=O)c2cccs2)[C@H](C)CN([C@@H](C)CO)C(=O)c2cc(NC(=O)CCCN(C)C)ccc2O1	1.0	-2	3	-1.5
C[C@@H]1CCCCO[C@H](CN(C)Cc2ccccc2)[C@H](C)CN([C@@H](C)CO)C(=O)c2cc(NS(=O)(=O)c3ccc(F)cc3)ccc2O1	7.6	2	-7	4.0
C[C@H]1CCCCO[C@H](CN(C)C(=O)Nc2ccc3c(c2)OCO3)[C@@H](C)CN([C@@H](C)CO)C(=O)c2cc(NC(=O)c3ccccc3)ccc2O1	1.4	-4	-2	0.9
C#Cc1ccc(NC(=O)C2(C)CCN2C(=O)CC(c2ccccc2)c2ccccc2)cc1 (configuration not stated)	-1.0	7	14	2.1
CN(C)c1ccc(CN2CCC(C(=O)NC(c3ccc(F)cc3)c3ccc4ccccc4n3)CC2)cc1 (configuration not stated)	42*	-26	-37	-0.2
Cn1cnc(S(=O)(=O)N[C@H]2C=C[C@H](CC(=O)NCC3CCCCC3)O[C@H]2CO)c1	1.1	-1	0	-2.0
Cc1ccccc1-c1ccc([C@H]2[C@H](CO)N3C(=O)CN(C(=O)Nc4cccc(F)c4)C[C@@H]23)cc1	3.1	-30	-45	26
CO[C@H]1CN(C)C(=O)c2ccc(NC(=O)c3ccccc3F)cc2OC[C@H](C)N(C(=O)c2ccccc2F)C[C@H]1C	-0.2	-1	-2	0.4
COc1ccccc1CNC(=O)C[C@H]1CC[C@@H]2[C@H](COC[C@@H](O)CN2Cc2ccccc2)O1	-1.4	-1	11	-5.9
Cc1ccc(S(=O)(=O)N(C)C[C@H]2Oc3c(NC(=O)CCCCCC(=O)Nc4ccccc4N)cccc3C(=O)N([C@@H](C)CO)C[C@H]2C)cc1	-12	-4	-1	-0.8
COc1ccc(NC(=O)N(C)C[C@H]2Oc3ccc(NC(=O)CCCN(C)C)cc3C(=O)N([C@H](C)CO)C[C@H]2C)cc1	0.8	0	1	1.7
Cn1cnc(CCNC(=O)C[C@@H]2CC[C@H]3[C@@H](COC[C@H](O)CN3C(=O)C3CC3)O2)c1	-0.7	-12	-25	1.1
C[C@H]1CN([C@@H](C)CO)C(=O)c2cccc(NS(=O)(=O)c3ccccc3)c2O[C@@H]1CN(C)C(=O)Nc1cccc2ccccc12	0.4	3	-3	2.8
CCCS(=O)(=O)NC(=O)C1(C)CCCN(C(=O)c2sccc2C)C1 (configuration not stated)	-1.3	3	8	-2.7
C[C@@H]1CN([C@@H](C)CO)C(=O)Cc2cc(NC(=O)C3CCCCC3)ccc2O[C@@H]1CN(C)Cc1ccc(-c2ccccc2)cc1	0.0	2	9	1.8
C[C@@H]1CN([C@H](C)CO)C(=O)c2cc(NS(=O)(=O)c3cn(C)cn3)ccc2O[C@@H](C)CCCCO[C@@H]1CN(C)C(=O)CCCN(C)C	2.5	7	9	-1.3
COc1ccccc1-c1ccccc1[C@@H]1[C@@H](C#N)N(C(=O)CN(C)C)[C@@H]1CO	-0.3	4	11	4.2
C/C=C/c1ccc([C@@H]2[C@H](CN(C)S(C)(=O)=O)N[C@@H]2CO)cc1	-4.8	2	0	-1.6
C[C@H]1CN([C@@H](C)CO)C(=O)Cc2cc(NS(C)(=O)=O)ccc2O[C@H]1CN(C)S(=O)(=O)c1ccccc1	-1.9	-1	8	1.3
C[C@H](CO)N1C[C@H](C)[C@@H](CN(C)C(=O)CC2CC2)Oc2ncc(C#CC3CC3)cc2C1=O	1.2	0	-4	-5.5
CNC[C@@H]1OCCCC[C@H](C)Oc2ccc(NS(C)(=O)=O)cc2C(=O)N([C@@H](C)CO)C[C@H]1C	-2.3	7	7	-1.6
CC(C)C#Cc1ccc2c(c1)O[C@@H](CN(C)C(=O)C1CC1)[C@H](C)CN([C@H](C)CO)S2(=O)=O	3.7	2	-12	1.5
C[C@@H]1CN([C@H](C)CO)C(=O)Cc2cc(NC(=O)Nc3ccc(F)cc3)ccc2O[C@H]1CN(C)Cc1ccc2c(c1)OCO2	-2.1	-28	-54	33
O=S1(=O)CC(N2CCC(Cc3ccccc3)CC2)CN1Cc1ccc(F)cc1 (configuration not stated)	1.7	-17	-36	2.0
COC(=O)[C@H]1[C@H](CO)[C@H]2Cn3c(cccc3=O)[C@H]2N1C(=O)C1CC1	-4.9	2	-6	-3.3
CS(=O)(=O)Nc1ccc2c(c1)[C@@H]1C[C@@H](CC(=O)NCc3ccccc3)O[C@H](CO)[C@@H]1O2	-0.6	2	6	-2.4
N#CCCN(Cc1ccccc1)C(CCc1ccccc1)C(=O)NC1CCCCC1 (configuration not stated)	0.4	-1	-18	1.5
O=C(C[C@H]1CC[C@@H](NC(=O)CN2CCOCC2)[C@H](CO)O1)NCc1cccc(F)c1	0.0	2	0	1.5
C[C@H]1CN([C@@H](C)CO)C(=O)c2cccc(NC(=O)Nc3ccccc3)c2O[C@H]1CN(C)Cc1ccc2c(c1)OCO2	-10	-1	-1	0.0
CSCCC(NS(=O)(=O)c1ccccc1)C(=O)Nc1nccs1 (configuration not stated)	-3.7	4	9	0.5
O=C(c1cccnc1)N1C[C@@H]2[C@H](c3ccccc31)[C@H](CO)N2C(=O)C1CCCCC1	-0.1	2	9	-0.6
C[C@@H]1CN([C@H](C)CO)C(=O)CCCn2cc(nn2)CO[C@H]1CN(C)C(=O)NC1CCCCC1	-2.0&0.2	0&3	-3&4	-1.6&0.1

In the list so far, these have a thiophene ring, fused or not:
SMILES	AF4-AF9 inh	Ecoli rRNA inh	Ecoli rRNA inh OD600	Ecoli rRNA inh RFP
C[C@@H]1CCCCO[C@@H](CN(C)S(=O)(=O)c2cccs2)[C@H](C)CN([C@@H](C)CO)C(=O)c2cc(NC(=O)CCCN(C)C)ccc2O1	1.0	-2	3	-1.5
CCCS(=O)(=O)NC(=O)C1(C)CCCN(C(=O)c2sccc2C)C1 (configuration not stated)	-1.3	3	8	-2.7

(further entries)
SMILES	AF4-AF9 inh	Ecoli rRNA inh	Ecoli rRNA inh OD600	Ecoli rRNA inh RFP
C[C@@H]1CN([C@@H](C)CO)C(=O)c2cc(NS(C)(=O)=O)ccc2O[C@@H](C)CCCCO[C@H]1CN(C)C(=O)c1ccccc1	-3.2	3	4	-0.3
C[C@H](CO)N1C[C@H](C)[C@@H](CN(C)S(=O)(=O)c2cccs2)Oc2ccc(NS(C)(=O)=O)cc2CC1=O	0.2	1	-2	-1.0
CN1CCN(C(=O)[C@@H]2[C@@H](CO)[C@@H]3Cn4c(ccc(C5=CCCC5)c4=O)[C@H]2N3S(C)(=O)=O)CC1	-0.2	2	8	-2.0
Cc1ccc(-c2ccc3c(c2)O[C@@H](CN(C)Cc2cccc(C(=O)O)c2)[C@H](C)CN([C@H](C)CO)S3(=O)=O)cc1	2.8	-11	-16	7.7
C[C@H]1CN([C@@H](C)CO)C(=O)c2cccc(NC(=O)c3cnccn3)c2O[C@@H]1CN(C)Cc1ccncc1	-3.5	-2	-2	-2.9
CNC[C@@H]1Oc2c(NC(=O)Nc3cccc4ccccc34)cccc2C(=O)N([C@@H](C)CO)C[C@H]1C	-1.5	-1	-1	0.2
CS(=O)c1ccccc1-c1nc(-c2ccc([N+](=O)[O-])cc2)no1 (configuration not stated)	9.3	3	8	-3.0
O=C(Cc1ccccc1)N1CC(=O)N2[C@H](CO)[C@@H](c3ccc(-c4ccc(F)cc4)cc3)[C@H]2C1	-0.7	-13	-34	-3.4
CCCNC(=O)N1C[C@H](C)[C@@H](OC)CN(C)C(=O)c2ccc(NS(=O)(=O)CC(F)(F)F)cc2OC[C@@H]1C	-1.5	-1	1	-1.1
O=C(C[C@@H]1CC[C@H](NC(=O)C2CCC2)[C@H](CO)O1)NCc1ccncc1	-1.7	5	9	-1.9
C[C@@H]1CN([C@@H](C)CO)S(=O)(=O)c2ccc(-c3ccc(C(=O)N(C)C)cc3)cc2O[C@@H]1CN(C)C(=O)C1CCC1	-0.5	-5	-8	-1.3
Cc1noc(C)c1NC(=O)Nc1ccc2c(c1)C(=O)N([C@H](C)CO)C[C@H](C)[C@H](CN(C)C(=O)c1ccccc1)OCCCC[C@@H](C)O2	-0.5	4	6	-3.0
Cc1ccc(S(=O)(=O)N2C[C@@H](O)COC[C@H]3O[C@H](CC(=O)NCc4ccc5c(c4)OCO5)CC[C@@H]32)cc1	11	-1	-9	-1.3
N#C[C@@H]1[C@H](c2ccc(C3=CCCCC3)cc2)[C@H](CO)N1S(=O)(=O)c1cccc(F)c1	0.7	3	-1	-1.2
O=C(NCC[C@H]1CC[C@H](NC(=O)C2CCOCC2)[C@@H](CO)O1)c1ccc(F)cc1	-5.2	-2	7	-2.8
CCCNC(=O)N(C)C[C@@H]1Oc2cc(Br)ccc2S(=O)(=O)N([C@H](C)CO)C[C@@H]1C	-2.4	5	14	-0.9
COc1ccc(S(=O)(=O)Nc2ccc3c(c2)C(=O)N([C@H](C)CO)C[C@H](C)[C@H](CN(C)C(=O)Nc2cccc4ccccc24)O3)cc1	0.6	1	-3	2.0
C[C@@H]1CN([C@H](C)CO)C(=O)c2cc(C#CC3CC3)cnc2O[C@H]1CN(C)C(=O)Nc1ccc(F)cc1	-0.8	2	1	-1.7
CCCNC(=O)[C@@H]1[C@@H](CO)[C@@H]2Cn3c(ccc(-c4cccc(F)c4)c3=O)[C@H]1N2C(=O)c1ccccn1	-0.7	0	2	-2.0
O=S(=O)(Cc1ccccc1)N1CCCCN2[C@@H](CO)[C@H](c3ccc(-c4ccccc4)cc3)[C@@H]2C1	-3.4	-10	-42	19
C[C@H]1CN([C@@H](C)CO)C(=O)c2cc(-c3ccccc3F)cnc2O[C@H]1CN(C)Cc1ccc(F)cc1	-9.0	2	5	1.2
C[C@H](CO)N1C[C@H](C)[C@H](CN(C)Cc2ccc(-c3ccccc3)cc2)Oc2ccc(NC(=O)CCCN(C)C)cc2C1=O	8.0	-56	-80	-15
COc1ccc(NC(=O)Nc2ccc3c(c2)C(=O)N([C@H](C)CO)C[C@@H](C)[C@@H](CN(C)Cc2ccc4c(c2)OCO4)OCCCC[C@@H](C)O3)cc1	22	0	-17	5.9
C[C@@H]1CCCCO[C@@H](CN(C)C(=O)NC2CCCCC2)[C@H](C)CN([C@@H](C)CO)C(=O)c2cc(NC(=O)Cc3ccccc3)ccc2O1	1.7	-3	-6	5.2
C[C@@H]1CN([C@@H](C)CO)C(=O)Cc2cc(NC(=O)CCN3CCOCC3)ccc2O[C@@H]1CN(C)C(=O)Nc1ccc(C(F)(F)F)cc1	0.2	1	2	-1.8
CCNC(=O)[C@H]1[C@H](CO)[C@H]2Cn3c(ccc(C4=CCCCC4)c3=O)[C@H]2N1C(=O)CC1CC1	-0.4	4	2	-0.2
CO[C@H]1CN(C)C(=O)c2ccc(NC(=O)Nc3cc(F)ccc3F)cc2OC[C@H](C)N(C(=O)c2ccccn2)C[C@H]1C	0.8	-7	-4	-2.6
CCCC(=O)N1CC2(CCN(C(C)=O)CC2)c2c(n(C)c3cc(OC)ccc23)[C@@H]1CO	-0.9	9	12	0.9
CC(C)CC#Cc1ccc2c(c1)O[C@H](CN(C)Cc1ccc(F)cc1)[C@@H](C)CN([C@H](C)CO)S2(=O)=O	1.1	2	10	-1.2
COc1ccc(CN(C)C[C@@H]2Oc3ccc(NC(=O)Nc4ccc(F)cc4)cc3C(=O)N([C@H](C)CO)C[C@H]2C)cc1	7.3	-4	-2	-1.6

In a second layout: 4 of the compounds above.
smiles | AF4-AF9 inh | Ecoli rRNA inh | Ecoli rRNA inh OD600 | Ecoli rRNA inh RFP
CO[C@H]1CN(C)C(=O)c2ccc(NC(=O)c3ccccc3F)cc2OC[C@H](C)N(C(=O)c2ccccc2F)C[C@H]1C | -0.2 | -1 | -2 | 0.4
COc1ccccc1CNC(=O)C[C@H]1CC[C@@H]2[C@H](COC[C@@H](O)CN2Cc2ccccc2)O1 | -1.4 | -1 | 11 | -5.9
Cc1ccc(S(=O)(=O)N(C)C[C@H]2Oc3c(NC(=O)CCCCCC(=O)Nc4ccccc4N)cccc3C(=O)N([C@@H](C)CO)C[C@H]2C)cc1 | -12 | -4 | -1 | -0.8
COc1ccc(NC(=O)N(C)C[C@H]2Oc3ccc(NC(=O)CCCN(C)C)cc3C(=O)N([C@H](C)CO)C[C@H]2C)cc1 | 0.8 | 0 | 1 | 1.7
